Autofluor counter = compound fluorescence in toxin protease inhibitor counterscreen; fluorescence intensity (test concentration not listed); compound autofluorescence counterscreen, microsphere flow cytometry; hits give high values; 360,000 tested, 3.1% active;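 active = at least 3 SD above the mean of all compounds, about 16000 in these data; inconclusive = too few beads counted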;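 note: 100 nL of 1 mM stock went into each well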
Mtb hypoxia inh = Mtb hypoxia fluorescent reporter inhibition; M. tuberculosis hypoxia-regulated fluorescent reporter, fluorescence; fluorescence inhibition, % (no concentration beside the values); 300,000 tested, 0.1% active; AID 1159583;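 active = 35 to 45% if threefold the growth effect, above 45% if 1.5-fold the growth effect; inactive = the rest, general growth blockers included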;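 note: wells of about 50 µL received 100 nL stock; 0% = vehicle wells and 100% = reference inhibitor wells; whole bacteria with a GFP reporter of the hypoxia response; strong numbers were not always called active; many hits fall short of the cut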
BJeLR lethal = BJeLR cell viability loss; BJeLR (HRASV12) viability, CellTiter-Glo ATP luminescence, 48 h; reference of the scale not given here; 300,000 tested, 0.17% active; inhibition, % (test concentration not listed);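 active = replicate mean above 50%; inconclusive = above 50% but judged a plate artefact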;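 note: 50 nL library stock added to about 25 µL; numbers are from one replicate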
Sa ugtP lethal = kills S. aureus RN4220 lacking UgtP. 330,000 tested, 0.54% active. S. aureus RN4220 ugtP deletion, OD600 growth, 16 h; some inactives read as strong as hits. growth inhibition, % (concentration not given with the values). AID 1259309;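 active = z-score under -3 and OD600 up to 0.15 on both plates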;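 note: plate controls were untreated wells for no effect and antibiotic for full effect; wells of about 80 µL received 100 nL stock; the first replicate is given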
PrP 5UTR inh = suppresses PrP 5' UTR mRNA reporter expression; cell-based PrP 5' UTR mRNA reporter, plate reader; inhibition, % (no concentration beside the values); 340,000 tested, 0.35% active; AID 488862;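 active = every replicate at 50% or more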;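 note: 0 = median of the neutral control wells; tested in H4 reporter cells; numbers are from one replicate; inactives centre near -14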
Sa RN4220 lethal = kills Staphylococcus aureus RN4220. S. aureus RN4220 growth, OD600, 16 h. inhibition, % (no concentration beside the values). 330,000 tested, 0.33% active. AID 1259311;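 active = z-score of -3 or lower and OD600 up to 0.18 on both plates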;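 note: plate controls were untreated cells for no effect and reference antibiotic for full effect; stock transfer was 100 nL into about 80 µL; one replicate is shown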
Mtb hypoxia inh growth = recorded beside Mtb hypoxia inh, whose call it bears; growth inhibition, %; measured here: M. tuberculosis growth (absorbance);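 0% = vehicle and 100% = reference antibiotic; read after six days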
Active calls of the source: *; ? = inconclusive; · = not tested or not shown.

cpd	mol	Sa RN4220 lethal	PrP 5UTR inh	Mtb hypoxia inh	Sa ugtP lethal	BJeLR lethal	Autofluor counter	Mtb hypoxia inh growth
1	Cc1nc(SC(=Cc2ccc(-c3cccc(Cl)c3)o2)C(=O)O)n[nH]1	4.0	·	5	-21	·	·	4
2	O=c1oc2cc(O)ccc2cc1S(=O)(=O)c1ccccc1	7.1	-12	-3	12	-14	4084	-1
3	CC(NC(=O)c1ccco1)C(=O)OC(C)C(=O)NCc1ccccc1 (stereo unspecified)	-1.5	-16	-9	2	2	3505	8
4	COC(=O)[C@@]12CCCN1C(c1ccc(-c3ccc(OC)cc3)cc1)C1C(=O)N(C)C(=O)C12 (stereo partly specified)	2.7	·	13	2	·	·	8
5	O=C(Nc1cccc(-c2cn3ccccc3n2)c1)c1cccc(Cl)c1	25	-16	·	-10	-12	2610	·
6	CC(=O)Nc1ccc(S(=O)(=O)N2CCCC2)cc1	1.4	-35	3	1	1	3824	8
7	COc1ccc(C(=O)NCC(c2ccccc2)N2CCCC2)cc1S(=O)(=O)N1CCOCC1 (stereo unspecified)	-9.6	9	-4	-6	·	5395	-9
8	Cc1ccc(C(=O)NCCNS(=O)(=O)c2ccccc2[N+](=O)[O-])cc1	5.2	-13	5	1	-18	3682	5
9	Cc1cc(OCCCC(=O)N2CCCCC2)cc(C)c1Cl	3.8	-29	·	17	-8	2763	·
10	Cc1cc(C(=O)OC(C)C(=O)Nc2cccc(S(=O)(=O)N3CCOCC3)c2)c(C)o1 (stereo unspecified)	-0.9	-31	·	5	1	2709	·
11	COc1ccc(C2CC(=O)C=C(c3cccc(OC(F)(F)F)c3)C2)cc1 (stereo unspecified)	0.8	·	12	2	·	·	1
12	CCC1=C(OC(=O)N(CC)CC)N2C(=O)OC(=NCCOC)[C@]2(Cc2ccccc2)[C@H]2C1=CC[C@H]1C(=O)N(CC)C(=O)[C@H]12	·	-14	·	·	16	3653	·
13	COc1ccc(NC(=O)COC(=O)c2ccc(N3CCCC3=O)cc2)cc1OC	1.0	-19	4	6	8	4358	5
14	CCCc1cc(=O)[nH]c(SCC(=O)c2[nH]c(C)c(C(=O)OCC)c2C)n1	9.9	5	2	1	7	2032	1
15	O=C(N/N=C/c1ccsc1)c1ccc2ccccc2n1	·	-30	·	·	1	5004	·
16	O=C(NCCN1CCOCC1)c1ccc(CSCc2cccc(Cl)c2)o1	5.2	9	6	9	-1	5044	-1
17	CCOC(=O)C1CCN(C(=O)C(=O)c2cn(CC(=O)N3CCCCCC3)c3ccccc23)CC1	2.1	5	-7	-3	-4	8139	-6
18	Cc1nc2nc(N)nc(OCc3ccccc3)c2nc1C	4.7	·	8	1	-3	4611	-11
19	CCCc1c(C)nc2c(OC)cccc2c1SCC(=O)O	·	-23	·	·	3	4388	·
20	COC(=O)C1CCN(S(=O)(=O)c2c(C)n(C)c(=O)n(C)c2=O)CC1	-12	-16	1	-5	11	5488	-4
21	CCOc1ccccc1/C=N/Nc1nc2ccccc2o1	·	-15	·	·	-2	6150	·
22	COC(=O)C1CN(S(=O)(=O)c2ccccc2)CCN1S(=O)(=O)c1ccccc1 (stereo unspecified)	4.2	-20	3	13	-1	4233	0
23	NC(=O)CC(NC(=O)Cc1cccc2ccccc12)c1ccc(NCCc2ccc(F)cc2)c([N+](=O)[O-])c1 (stereo unspecified)	2.9	-22	5	1	-13	4194	12
24	COCCNC(=O)/C(C#N)=C/C=C/c1ccccc1	-5.9	-11	0	3	7	4052	2
25	COc1ccc(C(=O)OCC(=O)NC2CC2)cc1S(=O)(=O)N(C)Cc1ccccc1	6.5	-23	-3	0	9	5706	-4
26	Cc1ccc(C23CC4CC(CC(C(=O)NC(C)C)(C4)C2)C3)cc1	3.8	-29	9	7	-3	3521	8
27	O=C(NC(=S)Nc1ccccc1O)c1ccc(Cl)cc1Cl	9.1	-33	-2	-7	0	4778	-2
28	Cc1[nH]c(=O)[nH]c1C(=O)CCCCC(=O)OCC(=O)Nc1ccccn1	5.6	-5	8	3	-4	4438	2
29	O=C(Cc1ccccc1)CC1(O)C(=O)Nc2ccccc21 (stereo unspecified)	-2.4	-26	2	-5	7	10959	13
30	CCOC(=O)c1c(CN2CCOCC2)oc2ccc(OC)cc12	1.8	-24	4	-10	8	21090*	5
31	COc1ccc(-n2c(N)c(-c3nc4ccccc4n3C)sc2=S)cc1	-10	-38	·	8	-2	2528	·
32	COc1cccc(C(=O)Nc2ccc(S(=O)(=O)NCc3ccco3)cc2)c1	4.7	-26	6	-4	-9	24328*	9
33	CCn1c(O)c(C(=O)CC2NCCc3ccccc32)c(=O)n(CC)c1=S (stereo unspecified)	25	-9	·	16	·	4864	·
34	Cc1c(/C=N\NC(=O)c2cccc(F)c2)cnn1C	·	-29	·	·	-4	2562	·
35	CCSc1nnc(NC(=O)c2cccnc2)s1	3.5	1	-11	-7	3	19138*	9
36	O=c1c2nncn2c2cccnc2n1CCNc1ncc(C(F)(F)F)cc1Cl	1.4	-14	15	-1	1	5366	9
37	CC(C)(C)NC(=S)N1CCC(C(=O)c2ccc(F)cc2)CC1	2.8	-10	6	8	-8	3732	4
38	COc1ccc(S(=O)(=O)N2CCCC2CNC(=O)C(=O)NCc2ccccc2)cc1 (stereo unspecified)	5.2	-5	6	-1	-1	?	2
39	COc1ccc(-c2nc(SCC(=O)N3CCOCC3)n[nH]2)cc1	0.4	-18	·	11	-5	3936	·
40	CC(=O)NC(=S)Nc1ccc(NC(=O)c2cccs2)cc1	·	-31	·	·	-23	2413	·
41	CN1C(=O)N(C)C2(c3ccccc3)Nn3c(s/c(=C/c4ccco4)c3=O)=NC12c1ccccc1 (stereo unspecified)	·	-16	·	·	-7	15623	·
42	COc1ccc(-n2nc3c(c2NC(=O)c2ccc4c(c2)OCO4)CS(=O)(=O)C3)cc1	3.8	-26	7	14	5	4200	-5
43	O=C(NCCc1cnccn1)C1CCC(=O)N(Cc2ccc(Cl)cc2)C1 (stereo unspecified)	1.0	-1	7	5	-4	6024	14
44	CCCOC(=O)Nc1ccc(S(=O)(=O)Nc2ncccn2)cc1	3.4	-20	25	4	1	4675	5
45	COc1ccc(NC(=O)c2cc3c(s2)CCC(C)C3)cc1S(=O)(=O)N1CCOCC1 (stereo unspecified)	-2.8	-16	0	-17	5	2072	4
46	COc1ccc2cc(C(=O)N3CCN(c4ccccc4F)CC3)[nH]c2c1	-2.3	0	-6	-4	-4	3793	7
47	c1ccc(COC2CCCN(Cc3nc(-c4cnccn4)no3)C2)nc1 (stereo unspecified)	8.1	1	-7	2	-12	2772	-1
48	CC(=O)N(c1ccc(C)cc1)C1C=CS(=O)(=O)C1 (stereo unspecified)	-2.4	-13	·	-6	-6	5437	·
49	CCOC(=O)C1CCCN(Cc2c(C(=O)N3CCOCC3)nc3ccccn23)C1 (stereo unspecified)	3.0	-9	7	2	-26	3439	-4
50	O=C(Oc1ccc2c(-c3ccccc3)cc(=O)oc2c1)c1cccs1	9.4	-17	-16	9	4	2897	2

Some of the entries so far, in transposed form:
48: CC(=O)N(c1ccc(C)cc1)C1C=CS(=O)(=O)C1 (stereo unspecified)
49: CCOC(=O)C1CCCN(Cc2c(C(=O)N3CCOCC3)nc3ccccn23)C1 (stereo unspecified)
Screen / compound no. | 48 | 49
Sa RN4220 lethal | -2.4 | 3.0
PrP 5UTR inh | -13 | -9
Mtb hypoxia inh | · | 7
Sa ugtP lethal | -6 | 2
BJeLR lethal | -6 | -26
Autofluor counter | 5437 | 3439
Mtb hypoxia inh growth | · | -4

More results.
cpd	mol	Sa RN4220 lethal	PrP 5UTR inh	Mtb hypoxia inh	Sa ugtP lethal	BJeLR lethal	Autofluor counter	Mtb hypoxia inh growth
51	Cc1cc(=O)n2[nH]c(N3C(=O)CCC3=O)nc2n1	3.4	-6	·	3	3	5284	·
52	COc1cccc(N2C(=NC(=O)C3CCCCC3)SC3CS(=O)(=O)CC32)c1 (stereo unspecified)	0.5	-20	12	1	-6	5147	2
53	O=C(O)c1cccc2c3c([nH]c12)CCCC3	3.2	-17	0	2	3	3721	7
54	COC(=O)Nc1ccc(S(=O)(=O)n2cnc3ccccc32)cc1	1.1	-8	15	1	2	11330	-2
55	COc1ccc(NC(=O)CCCN2C(=O)C3C4C=CC(C4)C3C2=O)c(OC)c1 (stereo unspecified)	0.1	1	·	6	-3	4161	·
56	CCn1c(=O)n(CC(=O)Nc2cc(OC)c(OC)c(OC)c2)c(=O)c2ccccc21	0.5	-7	8	7	-12	8030	0
57	COc1ccc(CN2CCN(c3ccc(F)cc3)CC2)c(OC)c1OC	4.1	-25	6	4	9	9666	2
58	CCOC(=O)c1c(-c2ccc(F)cc2)csc1N=CN(C)C	3.9	·	-2	0	·	·	4
59	O=S(=O)(Nc1cccc(-n2cnnn2)c1)c1cc(Br)ccc1Br	8.4	-13	-6	-2	11	5015	0
60	CN(C)C(=O)C[n+]1ccc(C(N)=O)cc1	3.6	-1	2	9	-7	5644	-3
61	COc1cccc(CN2CCNCC2)c1OC	3.6	-25	17	6	-18	3761	-2
62	Cc1ccc(N2C(=O)NC(=O)/C(=C\c3cc(C)n(-c4sc5c(c4C#N)CCCC5)c3C)C2=O)cc1	-1.0	-6	-4	7	2	2789	-1
63	COc1ccc(NC(=O)CN2CC(C)OC(C)C2)cc1Cl (stereo unspecified)	11	-11	8	2	-2	4261	7
64	COC(=O)c1ccc(CSc2nnc(CNC(=O)c3ccccc3F)o2)o1	1.6	-49	·	1	-5	2852	·
65	CCCCN(CC)Cc1ccc(CNC(=O)Nc2ccccc2)o1	1.8	-17	5	9	0	8213	8
66	COc1ccc(CC(=O)OCC(=O)N(CC(C)C)c2c(N)n(Cc3ccccc3)c(=O)[nH]c2=O)cc1	0.1	7	-2	2	14	·	3
67	COCCN1C=C2C(=O)C(C)(OC(=O)C3CCCC3)C(=O)C(c3ccccc3)=C2C=C1CCCC(=O)OC (stereo unspecified)	7.9	-13	8	3	-7	3941	7
68	Cc1nc2ccc(NC(=O)c3cccc(S(=O)(=O)N4CCOCC4)c3)cc2s1	4.5	-21	2	7	·	2745	12
69	Cc1cccc(NC(=O)CNC(=O)COC(=O)CCS(=O)(=O)c2ccccc2)c1C	2.3	-16	14	1	-5	6317	10
70	CCc1nnc(SC(C)C(=O)Nc2nccs2)n1C (stereo unspecified)	0.3	-4	4	-2	5	6714	-3

Along the list, from the results shown:
Entries 61 to 68 in Mtb hypoxia inh: 17, -4, 8, ·, 5, -2, 8, 2
Entries 61 to 68 in PrP 5UTR inh: -25, -6, -11, -49, -17, 7, -13, -21

The results go on:
cpd	mol	Sa RN4220 lethal	PrP 5UTR inh	Mtb hypoxia inh	Sa ugtP lethal	BJeLR lethal	Autofluor counter	Mtb hypoxia inh growth
71	O=C1C2ON(c3ccccc3)C(c3ccncc3)C2C(=O)N1c1ccc(N2CCOCC2)cc1 (stereo unspecified)	3.1	-7	8	13	-2	4223	11
72	COC(=O)c1ccc(CSc2nnc(Nc3ccc(C)cc3)s2)o1	4.5	10	13	0	-3	?	5
73	O=C(c1ccco1)[C@@H]1[C@@H]2C(=O)N(c3ccccc3)C(=O)[C@@H]2C2c3ccccc3C=CN21 (stereo partly specified)	5.1	-29	6	-2	2	7829	6
74	Cc1ccc(NC(=O)Nc2nnc(-c3ccncc3)s2)cc1C	4.1	-16	4	-7	9	5088	0
75	COc1ccc(N(CC(=O)Nc2cccc(C)c2)S(=O)(=O)c2c(C)n[nH]c2C)cc1	12	-19	3	14	-7	4255	1
76	CSc1nsc(/C=C/Nc2ccc(O)cc2C)c1C#N	0.9	-23	1	8	1	2729	-5
77	NS(=O)(=O)c1ccc(N2CCCCCC2)c([N+](=O)[O-])c1	-0.5	-22	9	2	-3	4731	10
78	O=C(N/N=C/c1ccccc1)c1ccc(CN2C(=O)c3cccc4cccc2c34)cc1	·	-33	·	·	-2	2514	·
79	Cc1cc(C)n2ncc(C(=O)Nc3ccc4c(c3)OCO4)c2n1	1.1	-29	·	-5	7	2623	·
80	CC(Oc1ccc(Cl)cc1)c1ccnc(N)n1 (stereo unspecified)	0.0	-3	16	7	-1	4470	-4
81	CN(C(=O)COC(=O)c1ccc(Cl)c(N)c1)c1ccccc1	0.3	-27	5	3	-4	3464	1
82	CCOc1cccc(CN2CCCC(CNC(=O)c3cccc(OC)c3OC)C2)c1 (stereo unspecified)	1.7	-106	6	0	-8	4110	6
83	Cn1c(C(=O)NCCCN2CCOCC2)cc2c(=O)n(C)c3ccccc3c21	-0.8	9	·	-2	1	4495	·
